MbtI inh: inhibitors of Mycobacterium tuberculosis siderophore enzyme MbtI | P9WFX0 | purified MbtI enzyme, fluorescence intensity read-out | inhibition, %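 (about 17 µg/mL by stock and volumes)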 | 0.89% of 100,000 active | AID 493033;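 active = above 50% in both replicates, above 80% if mildly self-fluorescent; inactive = the rest, strongly fluorescent compounds included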;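 also: 0% = mean of negative and 100% = mean of positive controls; one replicate is shown; some compounds called inactive have numbers as strong as hits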
Target sequence (P9WFX0 whole entry, looked up): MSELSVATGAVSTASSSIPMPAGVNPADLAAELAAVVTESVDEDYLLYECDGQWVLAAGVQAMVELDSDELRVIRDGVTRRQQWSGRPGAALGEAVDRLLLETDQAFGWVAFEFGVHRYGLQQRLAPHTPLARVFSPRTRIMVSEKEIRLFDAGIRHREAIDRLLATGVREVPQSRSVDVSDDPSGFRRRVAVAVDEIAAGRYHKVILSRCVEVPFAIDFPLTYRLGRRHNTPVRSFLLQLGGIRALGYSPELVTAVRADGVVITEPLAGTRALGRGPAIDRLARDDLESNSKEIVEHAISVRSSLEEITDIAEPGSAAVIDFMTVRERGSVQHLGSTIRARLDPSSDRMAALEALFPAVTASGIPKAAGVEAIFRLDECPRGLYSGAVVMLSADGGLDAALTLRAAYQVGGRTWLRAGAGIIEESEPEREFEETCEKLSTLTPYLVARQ
Mtb MenB inh: blocks the Mycobacterium tuberculosis MenB enzyme | P9WNP5 | MenB enzyme assay, absorbance read-out; some hits fall short of the stated cut | inhibition, %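 (about 12 µg/mL by stock and volumes)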 | 0.43% of 100,000 active | AID 540299;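 active = mean of two replicates above 30%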;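 also: 0% = no compound and 100% = wells with inactive enzyme; the first replicate is given; strong numbers were not always called active; inactives centre near -10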
Target sequence (P9WNP5 whole entry, looked up): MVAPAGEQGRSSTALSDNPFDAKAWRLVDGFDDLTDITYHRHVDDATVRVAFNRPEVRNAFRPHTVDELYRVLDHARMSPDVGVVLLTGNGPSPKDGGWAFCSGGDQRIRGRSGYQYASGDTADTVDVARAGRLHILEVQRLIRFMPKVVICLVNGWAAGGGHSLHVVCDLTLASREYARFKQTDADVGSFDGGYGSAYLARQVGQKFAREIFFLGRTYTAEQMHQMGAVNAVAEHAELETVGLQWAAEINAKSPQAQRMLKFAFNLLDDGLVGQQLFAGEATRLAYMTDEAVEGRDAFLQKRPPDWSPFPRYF
PV pol inh: poliovirus RNA polymerase inhibition. % elongation, % (compound at 16.7 µg/mL). 0.66% of 150,000 active. poliovirus polymerase elongation, fluorescence polarization; active compounds read low. P03300; in the data active = % elongation below about 90%; also: some results filed as inactive read as strong as hits
PV pol inh intensity: further read-out of PV pol inh, marked with its call; % elongation; measured here: total intensity read-out; formula for this scale not given here;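 total fluorescence in place of polarization; lower means less elongation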
* = called active by the depositor. Rows are unselected; overall some 1.7% were active at least once.

CCCc1nnc(NC(=O)Cc2coc3cc(C)ccc23)s1 was read as MbtI inh -3.6, Mtb MenB inh -8.3, PV pol inh 102.0 and PV pol inh intensity 105.0.
For Cc1ccc(/C=c2\sc3ncnn3c2=O)o1 the results were MbtI inh 6.2, Mtb MenB inh -141.4, PV pol inh 90.0 and PV pol inh intensity 100.0.
Screening CN1C(=O)CC(c2ccccc2)S(=O)(=O)c2ccccc21 (configuration not stated) returned MbtI inh 8.8, Mtb MenB inh 3.0, PV pol inh 102.0 and PV pol inh intensity 97.0.
`Cc1cccc(OCC(=O)NS(=O)(=O)c2ccc(Cl)cc2)c1` gave MbtI inh 12.6, Mtb MenB inh 0.3, PV pol inh 101.0 and PV pol inh intensity 104.0.
Screening CCOc1ccccc1-c1nc(=S)[nH][nH]1 returned MbtI inh 1.3, Mtb MenB inh -28.0, PV pol inh 102.0 and PV pol inh intensity 102.0.
For Cc1cc(C(F)(F)F)c(C#N)c(N)c1C#N the results were MbtI inh 118.8, Mtb MenB inh -19.0, PV pol inh 86.0 and PV pol inh intensity 110.0.
O=c1c(N2CCC3(CC2)OCCO3)csc2ccccc12 was read as MbtI inh 10.1, Mtb MenB inh -176.1, PV pol inh 102.0 and PV pol inh intensity 102.0.
Screening COc1ccc(C(=S)N2CCCCC2)cc1 returned MbtI inh 4.5, Mtb MenB inh -9.3, PV pol inh 99.0 and PV pol inh intensity 107.0.
For COC(=O)c1ccc(NC(=O)Cn2cc(OC)c(=O)cc2CN2CCCCC2)cc1 the results were MbtI inh 1.8, Mtb MenB inh -7.0, PV pol inh 104.0 and PV pol inh intensity 103.0.
`CCCN(C(=O)[C@H]1[C@@H]2C[C@@H]3[C@H]1C(=O)O[C@@H]3C2)c1c(C)cc(C)cc1C` gave MbtI inh -19.9, Mtb MenB inh -20.1, PV pol inh 103.0 and PV pol inh intensity 100.0.
O=C(Cn1cnc2c(nc3n2CCCCC3)c1=O)N1CCCCCC1 was read as MbtI inh -0.1, Mtb MenB inh 9.4, PV pol inh 103.0 and PV pol inh intensity 103.0.
For COc1ccc(C2N(c3ccc(OC)cc3)C(=O)C3CCCN32)cc1 (configuration not stated) the results were MbtI inh -5.5, Mtb MenB inh -49.5, PV pol inh 99.0 and PV pol inh intensity 103.0.
Screening CCOc1cc2c(cc1OCC)C1C(C(=O)N(C)Cc3ccccc3)c3ccccc3C(=O)N1CC2 (configuration not stated) returned MbtI inh -16.4, Mtb MenB inh -12.0, PV pol inh 104.0 and PV pol inh intensity 104.0.
Screening Cc1ccc2nc(-c3ccc(NS(C)(=O)=O)cc3)sc2c1 returned MbtI inh 103.8, Mtb MenB inh 1.9, PV pol inh 103.0 and PV pol inh intensity 108.0.
For Cc1[nH]nc2nc(C(F)(F)F)cc(C(F)(F)F)c12 the results were MbtI inh -73.8, PV pol inh 102.0 and PV pol inh intensity 104.0.
O=C(CSc1nccc(=O)[nH]1)NC1CCCCCC1 was read as MbtI inh -4.8, Mtb MenB inh -30.2, PV pol inh 101.0 and PV pol inh intensity 93.0.
For N#Cc1ccccc1COC(=O)c1ccccn1 the results were MbtI inh 4.7, Mtb MenB inh -15.3, PV pol inh 100.0 and PV pol inh intensity 101.0.
For CC1=CCCC2C1(C)CCC(C)C2(C)CC/C(C)=C/C[n+]1cn(C)c2c(N)ncnc21 (configuration not stated) the results were MbtI inh -2.4, Mtb MenB inh -4.3, PV pol inh 99.0 and PV pol inh intensity 103.0.
Screening Nc1nc(=S)n2c(n1)oc1ccccc12 returned MbtI inh 34.7, Mtb MenB inh -5.3, PV pol inh 98.0 and PV pol inh intensity 104.0.
Screening CCOC(=O)N1CCN(S(=O)(=O)c2cccc3ccc(C)nc23)CC1 returned MbtI inh -6.6, Mtb MenB inh -16.4, PV pol inh 102.0 and PV pol inh intensity 103.0.
`COc1ccc(CNCCN2CCOCC2)cc1` gave MbtI inh 4.4, Mtb MenB inh 28.2*, PV pol inh 102.0 and PV pol inh intensity 103.0.
`O=C(CSc1nc2ccccc2[nH]1)NC1CCS(=O)(=O)C1` (configuration not stated) gave MbtI inh -3.4, Mtb MenB inh 11.6, PV pol inh 100.0 and PV pol inh intensity 107.0.
For COC(=O)c1cc(-c2ccccc2)sc1NC(=O)C1CCCO1 (configuration not stated) the results were Mtb MenB inh -32.8, PV pol inh 85.0* and PV pol inh intensity 89.0*.
c1ccc(Cn2ncc3c(N4CCCCC4)ncnc32)cc1 was read as MbtI inh 9.1, Mtb MenB inh -20.3, PV pol inh 102.0 and PV pol inh intensity 102.0.

Pulled by structure from the list above, 3 records:
`O=C(CSc1nc2ccccc2[nH]1)NC1CCS(=O)(=O)C1` (configuration not stated) gave MbtI inh -3.4, Mtb MenB inh 11.6, PV pol inh 100.0 and PV pol inh intensity 107.0.
For N#Cc1ccccc1COC(=O)c1ccccn1 the results were MbtI inh 4.7, Mtb MenB inh -15.3, PV pol inh 100.0 and PV pol inh intensity 101.0.
`COc1ccc(CNCCN2CCOCC2)cc1` gave MbtI inh 4.4, Mtb MenB inh 28.2*, PV pol inh 102.0 and PV pol inh intensity 103.0.

The listing continues:
`COc1ccc(N2CCN(CCCNC(=O)C3=C(C)C(=O)OC34CCCCC4)CC2)cc1` gave MbtI inh -4.2, Mtb MenB inh -25.5, PV pol inh 104.0 and PV pol inh intensity 98.0.
For CC(CC(=O)N1CCN(C(=O)c2ccccc2)CC1)c1ccccc1 (configuration not stated) the results were MbtI inh -4.3, Mtb MenB inh -8.9, PV pol inh 103.0 and PV pol inh intensity 109.0.
`Cc1nn(-c2ccccc2)c(Cl)c1C(=O)NCCN(C)C` gave MbtI inh -13.5, PV pol inh 103.0 and PV pol inh intensity 109.0.
Screening CCCCOC(=O)Oc1cc2oc(=O)sc2cc1Br returned MbtI inh 1.9, Mtb MenB inh -51.6, PV pol inh 92.0 and PV pol inh intensity 87.0.
For CCCCc1cc(=O)oc2cc(C)cc(O)c12 the results were MbtI inh -47.7, Mtb MenB inh -28.9, PV pol inh 99.0 and PV pol inh intensity 103.0.
`CCN(C(=O)CN1C=NS(=O)(=O)c2ccccc21)c1ccccc1` gave MbtI inh -22.9, Mtb MenB inh -1.8, PV pol inh 102.0 and PV pol inh intensity 102.0.
Screening CC(C)c1c(O)c2ccccc2[nH]c1=O returned MbtI inh -325.6, Mtb MenB inh -99.3, PV pol inh 100.0 and PV pol inh intensity 100.0.
`CCOC(=O)C1=NNCC1C(=O)OCC` (configuration not stated) gave MbtI inh 5.5, Mtb MenB inh -19.3, PV pol inh 102.0 and PV pol inh intensity 106.0.
Screening COC(=O)c1c(C)[nH]c(C(=O)O)c1C returned MbtI inh -15.1, Mtb MenB inh -2.1, PV pol inh 104.0 and PV pol inh intensity 106.0.
CSc1nc(-c2ccccc2)nc(Sc2ccccn2)c1C#N was read as MbtI inh 8.1, Mtb MenB inh -17.3, PV pol inh 102.0 and PV pol inh intensity 105.0.
Screening CCOC(=O)C(C)Sc1nnc(Cn2c(=O)sc3ccccc32)n1-c1cccc(Cl)c1 (configuration not stated) returned MbtI inh -15.3, Mtb MenB inh -4.1, PV pol inh 103.0 and PV pol inh intensity 108.0.
For COc1ccc(C(=O)SC2=NCCS2)cc1 the results were MbtI inh 24.9, Mtb MenB inh 9.1, PV pol inh 100.0 and PV pol inh intensity 101.0.
For COc1cc2c(cc1OC)C1=C(C#N)CN(CCc3ccccc3)CN1CC2 the results were MbtI inh 15.1, Mtb MenB inh -33.8, PV pol inh 101.0 and PV pol inh intensity 97.0.
For O=C(CNCc1ccco1)Nc1ccccc1-n1cccc1 the results were MbtI inh -0.6, Mtb MenB inh -7.1, PV pol inh 99.0 and PV pol inh intensity 102.0.
Screening CCC(=O)OCCNc1nc(-c2ccccc2)nc2ccccc12 returned MbtI inh 20.8, Mtb MenB inh -16.5, PV pol inh 102.0 and PV pol inh intensity 103.0.
For O=C(COC(=O)/C=C/c1ccc(Br)o1)Nc1ccc(N2CCOCC2)cc1 the results were MbtI inh 2.0, Mtb MenB inh 9.6, PV pol inh 106.0 and PV pol inh intensity 118.0.
`CCCCn1c(SCC#N)nc2ccccc2c1=O` gave MbtI inh -7.4, Mtb MenB inh -1.7, PV pol inh 102.0 and PV pol inh intensity 104.0.
`O=c1cc(-c2ccccc2)nc2scc(-c3ccc(Cl)cc3)n12` gave MbtI inh -12.3, Mtb MenB inh 9.2, PV pol inh 109.0 and PV pol inh intensity 114.0.
CN(C)C(=O)c1c(N)no[n+]1[O-] was read as MbtI inh 11.4, Mtb MenB inh 20.8, PV pol inh 100.0 and PV pol inh intensity 102.0.
c1ccc2c(c1)nc(NC1CCCCC1)c1nnnn12 was read as MbtI inh -5.4, Mtb MenB inh -25.4, PV pol inh 101.0 and PV pol inh intensity 103.0.
CSC1=NCCN1C(=O)Cc1ccccc1 was read as MbtI inh 5.4, Mtb MenB inh 5.0, PV pol inh 102.0 and PV pol inh intensity 104.0.
O=C(NCCO)Nc1c[nH]c2c(Cl)cccc2c1=O was read as MbtI inh 89.9, Mtb MenB inh -6.9, PV pol inh 102.0 and PV pol inh intensity 98.0.
For O=c1cc(-c2ccccc2)[nH]c(=S)[nH]1 the results were MbtI inh 12.4, Mtb MenB inh -25.0, PV pol inh 102.0 and PV pol inh intensity 96.0.
Screening C=CCn1cc(C(=O)NCC2CCCO2)c(=O)c2cc(S(=O)(=O)N(CC)CC)ccc21 (configuration not stated) returned MbtI inh 0.9, Mtb MenB inh -0.1, PV pol inh 100.0 and PV pol inh intensity 101.0.

Grouped by structure: the entries above containing a CF3 group (2)
For Cc1cc(C(F)(F)F)c(C#N)c(N)c1C#N the results were MbtI inh 118.8, Mtb MenB inh -19.0, PV pol inh 86.0 and PV pol inh intensity 110.0.
For Cc1[nH]nc2nc(C(F)(F)F)cc(C(F)(F)F)c12 the results were MbtI inh -73.8, PV pol inh 102.0 and PV pol inh intensity 104.0.

Next entries follow:
COc1c2c(nc3occc13)C(CCC(C)(C)O)(OC)C(O)CC2 (configuration not stated) was read as MbtI inh -3.0, Mtb MenB inh -26.7, PV pol inh 102.0 and PV pol inh intensity 102.0.
COc1ccc(-c2onc3ccc(Cl)cc23)cc1 was read as Mtb MenB inh -3.3, PV pol inh 106.0 and PV pol inh intensity 108.0.
`O=C(Cn1ncc2ccsc2c1=O)NCCN1CCN(Cc2ccccc2)CC1` gave MbtI inh 0.8, Mtb MenB inh 6.8, PV pol inh 101.0 and PV pol inh intensity 105.0.
`Cn1nnnc1SCC(=O)Nc1ccc(C(=O)NCc2ccc3c(c2)OCO3)cc1` gave MbtI inh -4.2, Mtb MenB inh -11.5, PV pol inh 99.0 and PV pol inh intensity 99.0.
Screening Cc1nn2c3cc(N4CCOCC4)ccc3nc2c2ccccc12 returned Mtb MenB inh -8.6, PV pol inh 100.0 and PV pol inh intensity 113.0.
C(=N\N1CCOCC1)/c1cn(-c2ccccc2)nc1-c1ccccc1 was read as MbtI inh 4.8, Mtb MenB inh -29.9, PV pol inh 97.0 and PV pol inh intensity 105.0.
Screening O=C1c2ccccc2C(O)(c2ccccc2)N1c1ccc(N2CCOCC2)cc1 (configuration not stated) returned MbtI inh 2.1, Mtb MenB inh -30.9, PV pol inh 102.0 and PV pol inh intensity 99.0.
`Cc1ccccc1N1C(=O)c2ccccc2NC1c1ccncc1` (configuration not stated) gave MbtI inh 79.7, Mtb MenB inh -61.0, PV pol inh 101.0 and PV pol inh intensity 103.0.
Cc1cccn2c(=O)c3cc(C(=O)NCC4CCCO4)c(=N)n(CCN4CCOCC4)c3nc12 (configuration not stated) was read as MbtI inh inactive, Mtb MenB inh -120.7, PV pol inh 99.0 and PV pol inh intensity 102.0.
For CCOC(=O)N1CCN(C(=O)c2ccc3c(=O)n(CC4CCCO4)c(=S)[nH]c3c2)CC1 (configuration not stated) the results were MbtI inh 1.6, Mtb MenB inh -23.7, PV pol inh 101.0 and PV pol inh intensity 99.0.
Screening Cc1nc2ccc(S(=O)(=O)CCC(=O)N3CCN(Cc4ccccc4)CC3)cc2s1 returned MbtI inh 0.2, Mtb MenB inh 7.1, PV pol inh 103.0 and PV pol inh intensity 99.0.
`COc1ccc(CNC(=O)COC(=O)C2=COCCO2)cc1` gave MbtI inh -4.2, Mtb MenB inh 1.8, PV pol inh 104.0 and PV pol inh intensity 109.0.
`CC(C)(C)NC(=O)CCCc1nc(-c2ccccc2)no1` gave MbtI inh -2.1, Mtb MenB inh -0.2, PV pol inh 101.0 and PV pol inh intensity 101.0.
Screening Cc1nn(C)c2ncc3c(=O)n(Cc4ccccc4Cl)n(C)c3c12 returned MbtI inh -23.6, Mtb MenB inh 2.9, PV pol inh 101.0 and PV pol inh intensity 102.0.
For O=c1cccc2n1CC1CC2CN(c2ccc3nnc(-c4ccccc4)n3n2)C1 (configuration not stated) the results were MbtI inh 8.9, Mtb MenB inh 0.5, PV pol inh 101.0 and PV pol inh intensity 103.0.
O=C(N=C1N=C2N=CC=CN2Cc2ccccc21)C1CCCCC1 was read as MbtI inh -6.5, Mtb MenB inh -4.8, PV pol inh 101.0 and PV pol inh intensity 111.0.
O=C1/C(=C/N2CCCCC2)Nc2ccccc21 was read as MbtI inh 14.9, Mtb MenB inh -152.8, PV pol inh 100.0 and PV pol inh intensity 118.0.
O=C(CN1CCN(Cc2ccc(F)cc2)C1=O)NC1CCCC1 was read as MbtI inh -2.7, Mtb MenB inh 7.3, PV pol inh 100.0 and PV pol inh intensity 104.0.
`COc1ccc(-c2nnc(SCC(=O)NC(=O)NCc3ccco3)n2C(C)C)cc1` gave MbtI inh 17.1, Mtb MenB inh -0.7, PV pol inh 100.0 and PV pol inh intensity 104.0.

High-throughput results deposited in PubChem BioAssay by ICCB-Longwood Screening Facility, Harvard Medical School.
